# MT1-MMP act inh: blocks activation of human MT1-MMP | HT1080 RFP-PRO-GFP cells, GFP/RFP ratio fluorescence, overnight; percent of plate control window, DMSO zero | GFP/RFP ratio change, % at 20 µM | actives 0.061% (n = 360,000) | AID 651647;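 active = GFP/RFP ratio change of at least 30% with cell ATP level not reduced by more than half and red fluorescence within 50% of control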; also: strong numbers were not always called active
#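 Compound: 20 µM single dose, 1% DMSO / System: HT1080 RFP-PRO-GFP cells / Controls: DMSO and RFP-L50D-GFP cell wells / Read-out basis: GFP/RFP fluorescence ratio / Schedule: overnight compound exposure at 37 °C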
# eIF4H inh: inhibitors of RNA binding by human eIF4H | Q15056 | eIF4H fluorescence polarization binding assay | inhibition, % at 35 µM | actives 0.94% (n = 290,000) | AID 2012;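 active = 50% or more with normal probe brightness, or confirmed in later tests; about a fifth of its hits are not listed in these tables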;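 also: calls also rest on retests at 20 µM and on dose response follow-up; 0% = protein and probe with vehicle and 100% = probe without protein; strong numbers were not always called active; many hits fall short of the cut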
# Rce1 inh: yeast Ras-converting enzyme inhibition; Q03530; yeast membranes, quenched prenylated peptide cleavage fluorescence; calls only; actives 0.27% (n = 290,000); AID 2563;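 active = fall in fluorescence gain of 50% or more versus controls, with final raw signal at or below 3038400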;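 also: plate controls were neutral control wells for no effect and wells lacking membranes for full effect; tested at 10 µM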
# Target sequence (Q03530 whole entry, looked up): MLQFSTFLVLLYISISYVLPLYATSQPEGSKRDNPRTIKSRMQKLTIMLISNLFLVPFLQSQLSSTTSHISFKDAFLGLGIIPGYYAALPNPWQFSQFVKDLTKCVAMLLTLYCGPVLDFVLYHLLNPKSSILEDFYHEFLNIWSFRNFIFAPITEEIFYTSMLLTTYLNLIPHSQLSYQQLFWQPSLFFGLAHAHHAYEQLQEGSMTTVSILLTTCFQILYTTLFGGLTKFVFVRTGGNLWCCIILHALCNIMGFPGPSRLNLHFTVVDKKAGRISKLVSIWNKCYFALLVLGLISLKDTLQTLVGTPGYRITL
# HIV Env fusion: blocks HIV Env-driven cell-cell fusion; actives 1.1% (n = 360,000); HeLa-JRFL Env/CEM21 cell fusion, luciferase; inhibition, % at 12.3 µM;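 active = mean replicate inhibition score of at least 50 and every replicate individually at or above 50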;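 also: 0% = plate neutral controls and 100% = maraviroc near 300 nM; one replicate is shown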
# PABP polyA inh: blocks human PABP binding to poly(A) RNA. P11940. fluorescence polarization. inhibition, % at 35 µM. actives 1% (n = 290,000). AID 2014;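 active = 50% or more with normal probe brightness, or confirmed in later tests; about a fifth of its hits are not listed in these tables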;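 also: calls also rest on retests at 20 µM and on dose response follow-up; controls were probe without protein and protein plus probe with vehicle; some compounds called inactive have numbers as strong as hits; many hits fall short of the cut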
# Target sequence (P11940 whole entry, looked up): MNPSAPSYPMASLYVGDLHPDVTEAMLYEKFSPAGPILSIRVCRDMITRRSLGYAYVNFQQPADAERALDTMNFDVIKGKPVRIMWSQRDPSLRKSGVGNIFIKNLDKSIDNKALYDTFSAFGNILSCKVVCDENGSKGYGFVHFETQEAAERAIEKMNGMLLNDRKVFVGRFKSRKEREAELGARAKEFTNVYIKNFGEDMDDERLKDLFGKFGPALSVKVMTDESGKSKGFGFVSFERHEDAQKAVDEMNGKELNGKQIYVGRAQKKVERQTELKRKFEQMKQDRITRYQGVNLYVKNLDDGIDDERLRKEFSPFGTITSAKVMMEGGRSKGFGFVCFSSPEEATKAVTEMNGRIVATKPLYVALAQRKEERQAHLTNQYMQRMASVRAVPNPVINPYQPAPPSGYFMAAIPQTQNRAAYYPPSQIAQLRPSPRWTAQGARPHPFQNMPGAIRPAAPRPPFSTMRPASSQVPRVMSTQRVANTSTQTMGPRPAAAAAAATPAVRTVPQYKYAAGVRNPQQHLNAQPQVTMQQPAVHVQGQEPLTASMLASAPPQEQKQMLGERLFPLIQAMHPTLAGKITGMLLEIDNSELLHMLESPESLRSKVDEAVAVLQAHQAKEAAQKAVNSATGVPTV
# Yeast UUG start: yeast start codon fidelity modulation; S. cerevisiae UUG-firefly luciferase reporter, luminescence/redox ratio; activity score, % at 18.7 µM; actives 0.13% (n = 350,000);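 active = replicate mean at a twofold rise or more, about +100% in these data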;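 also: firefly luciferase made from a UUG start codon reports start codon fidelity; reporter light over untreated wells divided by growth signal over untreated wells; some hits fall short of that in this replicate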
# CSC inhib: blocks cancer stem cells | cancer stem cell-like cells viability, luminescence | actives 1.1% (n = 300,000) | inhibition, % at 7.5 µM;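 active = mean at 75% or more and at least half the replicates too; tested in HMLE shEcad cells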;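 also: 0% = median of negative and 100% = median of positive control wells; the first replicate is given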
# eIF4H inh retest: second read-out of eIF4H inh, no call of its own (marks repeat the call); inhibition, %; compound at 20 µM; confirmation average;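 mean of two retest wells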
# PABP polyA inh retest: recorded beside PABP polyA inh, whose call it bears; inhibition, %; compound at 20 µM; confirmation repeats;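 mean of two retest wells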
# MT1-MMP act inh RFP: second read-out of MT1-MMP act inh, no call of its own (marks repeat the call); RFP signal change, %; measured here: RFP expression control read;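 0 = vehicle wells; hits needed this value within 50% of zero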
# * = called active by the depositor; i = inactive; . = no result given. These rows are one share of the data; count on the stated rates, not on these rows.
# Sample of the layout, 2 compounds:
SMILES,MT1-MMP act inh,MT1-MMP act inh RFP,eIF4H inh,Rce1 inh,HIV Env fusion,PABP polyA inh,Yeast UUG start,CSC inhib,others
N#Cc1cccc(C(=O)Nc2cccc(S(=O)(=O)N3CCCC3)c2)c1,0,-3,5,i,8,9,-7,-8,
COc1ccc(C(C(=O)NC2CCCC2)N(Cc2ccco2)C(=O)c2snc(C(N)=O)c2N)cc1OC (stereo not given),3,8,9,i,-3,3,-13,-10,

# This part in full, previewed entries included:
SMILES,MT1-MMP act inh,MT1-MMP act inh RFP,eIF4H inh,Rce1 inh,HIV Env fusion,PABP polyA inh,Yeast UUG start,CSC inhib,others
N#Cc1cccc(C(=O)Nc2cccc(S(=O)(=O)N3CCCC3)c2)c1,0,-3,5,i,8,9,-7,-8,
COc1ccc(C(C(=O)NC2CCCC2)N(Cc2ccco2)C(=O)c2snc(C(N)=O)c2N)cc1OC (stereo not given),3,8,9,i,-3,3,-13,-10,
COc1cccc(CNS(=O)(=O)c2cccc(S(=O)(=O)N3CCOCC3)c2)c1,1,-4,2,i,0,0,16,3,
CCN1/C(=C/C=C/c2sc3ccccc3[n+]2CC)Sc2ccccc21,48,58,.,i,.,.,-4,79*,
O=C(N[C@@H](Cc1ccccc1)C(=O)O)c1c(F)c(F)c(F)c(F)c1F,2,4,5,i,-12,3,13,4,
COC(=O)c1cc(OC)c(OC)cc1NC(=S)N1CCOCC1,2,6,-9,i,4,-8,-14,.,
COCCn1cnc2cc(C)c(C)cc21,-3,0,1,i,.,0,-20,-12,
Cc1ccc(-c2nnc(NCc3nc4ccccc4[nH]3)c3ccccc23)cc1S(=O)(=O)N1CCOCC1,.,.,-13,i,.,9,-9,-5,
COCc1cccc(-c2csc(C(C)(O)c3ccccc3)n2)c1 (stereo not given),1,-11,.,.,20,.,-34,.,
Cc1cc(OCCn2cnc3ccccc3c2=O)ccc1[N+](=O)[O-],-2,-2,-7,i,-5,-3,.,-5,
CC1OC(OC2C(Oc3c(-c4ccc(O)cc4)oc4cc(O)cc(O)c4c3=O)OC(COC3O[C@@H](C)[C@H](O)[C@@H](O)C3O)C(O)C2O)C(O)C(O)C1O (stereo not given in full),7,9,.,i,.,.,4,-5,
CC(C)[C@H](NC(=O)c1cc2cc(Cl)ccc2n1C)C(=O)N[C@@H](C(=O)O)c1ccccc1,0,6,7,i,-4,12,-2,-9,
COC(=O)c1ccc(NC(=O)Cn2nc(-c3ccncc3)nc2SCC(=O)Nc2nccs2)cc1,-3,-5,-10,i,-49,-26,-9,-13,
Fc1ccc(CNc2nc(-c3ccco3)cc(C(F)(F)F)n2)cc1,-16,-3,2,i,-5,-1,-11,-8,
CCOC(=O)C1CCN(c2ccc([N+](=O)[O-])cc2)CC1,.,.,3,i,0,12,.,-17,
CCOC(=O)c1ccc(N2C(=O)C(O)=C(C(C)=O)C2c2ccccc2)cc1 (stereo not given),2,-3,-6,i,.,12,-9,-3,
Fc1cccc(CSc2ccc3nnc(-c4cccnc4)n3n2)c1,0,-2,4,i,6,4,.,6,
Cc1ccc(C(=O)c2ccccc2C(=O)OCC(=O)NC(=O)NC(C)(C)C)cc1,2,4,1,i,12,8,.,11,
CCOC(=O)C1=C(C)N(C)C(C)=C(C(=O)OCC)C1c1ccsc1,2,-1,6,i,2,-3,.,.,
O=C1CCN(Cc2ccc([N+](=O)[O-])cc2)CCN1CCO,-1,2,-9,i,-28,-10,-20,2,
C=CCNC(=O)c1ccc2c(c1)S(=O)(=O)c1ccccc1C2=O,3,-2,.,i,-13,.,10,16,
C=CCN=C(CC)C1=C(O)CCCC1=O,-1,3,10,i,.,21,-16,-4,
CCOC(=O)c1sc(=NC(=O)C2CC2)n(C)c1C,-9,-5,3,i,-6,0,.,6,
O=C(CN(C(=O)c1csnn1)c1cccc(F)c1)NCc1ccc2c(c1)OCO2,-4,0,4,i,0,0,-8,.,
COCCn1c(=S)[nH]c2cc(C(=O)NCCCN3CCOCC3)ccc2c1=O,2,3,2,i,.,-5,-17,0,
CC(=O)c1ccc2noc(-c3ccccc3)c2c1,-7,1,5,i,22,11,2,-15,
Cc1ccc2occ(/C=N/NC(=O)c3ccccc3O)c(=O)c2c1,-20,-22,14,i,26,4,2,-7,
C[C@H](CO)N1C[C@H](C)[C@@H](CN(C)S(=O)(=O)c2cn(C)cn2)Oc2c(NS(=O)(=O)c3ccccc3)cccc2C1=O,-1,4,.,.,-80,.,-17,-9,
COc1ccc(CN(C(=O)c2cc3ccccc3oc2=O)C2CCS(=O)(=O)C2)cc1OC (stereo not given),-1,-1,2,i,-35,4,-41,.,
O=[N+]([O-])c1ccccc1N/N=C/c1cc2ccccc2nc1Cl,25,0,-11,i,.,-4,-6,7,
COc1cccc(N2CCN(Cc3nc4ccccc4c(=O)[nH]3)CC2)c1,-8,0,11,i,.,3,-20,-13,
COc1ccc(CCNC(=O)c2ccc3c(c2)S(=O)(=O)N=C2CCCCCN23)cc1OC,3,4,.,.,-7,.,19,.,
COC(=O)CCNS(=O)(=O)c1ccc2ccccc2c1,1,3,-4,i,.,29,-18,.,
COc1ccc2[nH]cc(CCNC(=O)C3CC(=O)N(c4ccc(Cl)cc4)C3)c2c1 (stereo not given),2,0,4,i,-1,5,-8,-6,
C=C1C(=O)[C@]23C[C@H]1CC[C@H]2[C@]1(C)[C@@H](OC(C)=O)CC[C@@](C)(C(=O)OC)[C@H]1C[C@@H]3OC(C)=O,4,-8,.,.,-15,.,18,.,
CCC(C)NC(=O)C1CCC(=O)N1CCc1ccccc1 (stereo not given),2,6,-8,i,1,2,-10,-2,
Cc1ccc(F)c(NC=C2C(=O)OC(C)(C)OC2=O)c1,6,2,-10,i,.,2,-15,-14,
CCOc1cc(C(C(=O)NCC2CCCO2)N(C(=O)Cn2nnc3ccccc32)c2ccccc2OC)ccc1O (stereo not given),0,2,-2,i,2,9,1,.,
CN(C)C(=O)c1ccc(NC(=O)c2cccc(-n3cnnn3)c2)cc1,-2,-1,.,.,17,.,-13,.,
NC(=O)CSc1ccc(S(=O)(=O)N2CCCCC2)cn1,-8,4,.,.,-8,.,-11,.,
COc1cc(/C=C2/C(=O)N=C(N)N2C)cc(OC)c1OC,-13,5,-2,i,.,-13,-22,.,
O=c1ccccn1Cc1c(F)cccc1Cl,-2,0,10,i,11,-4,-7,-7,
O=C(NC(=S)NCCc1ccccc1)C1CCCCC1,-18,-9,9,i,-4,10,-29,102*,
Cc1ccnc(N2C(=O)CSC2c2ccc(Cl)cc2)c1 (stereo not given),-3,0,0,i,9,-11,-4,-5,
O=C(/C=C/c1ccc(S(=O)(=O)N2CCOCC2)cc1)NC(=S)NCCCn1ccnc1,-4,-4,-8,i,10,-7,-7,-8,
CCc1ccccc1NC(=O)N[C@H](C(=O)O)C(C)CC (stereo not given in full),-1,2,-8,i,.,-17,-20,1,
CCOC(=O)N1CCC(Nc2c(Nc3ccc(C)c(C)c3)c(=O)c2=O)CC1,9,0,6,i,.,9,6,.,
COc1ccc(N2C(=O)/C(=C\c3ccco3)N=C2SCC(=O)NC(C)(C)C)cc1Cl,-12,1,26,i,.,3,-18,0,
CCOC(=O)c1cc(-c2ccc(F)cc2)n(CC(=O)Nc2nccs2)c1C,-7,-6,.,i,-9,.,-21,.,
CCN(CC)C(=O)CN1CCN(Cc2ccc3c(c2)OCO3)CC1,7,10,9,i,-7,-3,4,3,
O=C1C=C(O)C(n2cncn2)C(c2ccc(F)cc2)C1 (stereo not given),2,4,-7,i,7,3,-8,-11,
CC(=O)c1ccc(NC(=O)c2c(C)nn(-c3ccccc3)c2Cl)cc1,-1,-2,-5,i,15,-2,.,7,
COc1ccc(S(=O)(=O)N(C)CC(=O)N2CCN(C)CC2)cc1Cl,-1,-2,6,i,.,-4,-17,-4,
Cc1cc(Br)cc(Cl)c1OCC(=O)N1CCN(C(=O)c2ccco2)CC1,-3,-1,.,.,-8,.,14,.,
COC(=O)c1ccccc1NC(=O)C1CCCN(S(=O)(=O)c2ccc(OC)cc2)C1 (stereo not given),-4,-12,2,i,.,-15,-7,.,
O=C(CCN1CCN(c2ccccc2)CC1)N/N=C/c1ccc(O)c(O)c1O,-2,3,95,i,-11,81*,-11,.,eIF4H inh retest=19;PABP polyA inh retest=60*
CC[C@]12c3[nH]c4ccc(OC)cc4c3CCN1C(=O)C(CC(=O)NCCCN(C)C)C[C@@H]2C(=O)N1CCN(C(=O)C2CC2)CC1 (stereo not given in full),1,5,.,.,11,.,-15,.,
COc1cc(CN2CCCCCC2)cc(Br)c1O,1,5,14,i,-4,13,10,-30,
CC(=O)Nc1ccc(S(=O)(=O)NNc2cccc(C)c2)cc1,-1,-1,-22,i,-18,11,-26,13,
O=C(N/N=C/c1ccc[nH]1)c1ccc([N+](=O)[O-])cc1,4,0,14,i,-27,-7,-4,-3,
# Following part
SMILES,MT1-MMP act inh,MT1-MMP act inh RFP,eIF4H inh,Rce1 inh,HIV Env fusion,PABP polyA inh,Yeast UUG start,CSC inhib,others
CCOc1ccc(N(CC(=O)NCCOc2ccc(C)cc2)S(=O)(=O)c2ccccc2)cc1,0,-6,-7,i,8,-4,-35,-7,
O=C(c1ccc(S(=O)(=O)N2CCOCC2)cc1)N1CCc2ccccc21,1,-3,-5,i,2,2,-16,0,
O=c1cccccc1NN=C1CCCCCC1,-2,2,59*,i,-57,28*,.,-4,eIF4H inh retest=82*;PABP polyA inh retest=72*
CC1CCCCN1C(=O)c1cc(S(=O)(=O)N2CCCCC2)c[nH]1 (stereo not given),1,0,-6,i,-10,-5,1,-2,

# 13 entries already listed, ordered by SMILES length, smallest number first.
SMILES,MT1-MMP act inh,MT1-MMP act inh RFP,eIF4H inh,Rce1 inh,HIV Env fusion,PABP polyA inh,Yeast UUG start,CSC inhib,others
O=c1cccccc1NN=C1CCCCCC1,-2,2,59*,i,-57,28*,.,-4,eIF4H inh retest=82*;PABP polyA inh retest=72*
COc1cc(CN2CCCCCC2)cc(Br)c1O,1,5,14,i,-4,13,10,-30,
CCc1ccccc1NC(=O)N[C@H](C(=O)O)C(C)CC (stereo not given in full),-1,2,-8,i,.,-17,-20,1,
CC(=O)Nc1ccc(S(=O)(=O)NNc2cccc(C)c2)cc1,-1,-1,-22,i,-18,11,-26,13,
O=C(N/N=C/c1ccc[nH]1)c1ccc([N+](=O)[O-])cc1,4,0,14,i,-27,-7,-4,-3,
COc1ccc(S(=O)(=O)N(C)CC(=O)N2CCN(C)CC2)cc1Cl,-1,-2,6,i,.,-4,-17,-4,
CC(=O)c1ccc(NC(=O)c2c(C)nn(-c3ccccc3)c2Cl)cc1,-1,-2,-5,i,15,-2,.,7,
Cc1cc(Br)cc(Cl)c1OCC(=O)N1CCN(C(=O)c2ccco2)CC1,-3,-1,.,.,-8,.,14,.,
CCOC(=O)N1CCC(Nc2c(Nc3ccc(C)c(C)c3)c(=O)c2=O)CC1,9,0,6,i,.,9,6,.,
COC(=O)c1ccccc1NC(=O)C1CCCN(S(=O)(=O)c2ccc(OC)cc2)C1 (stereo not given),-4,-12,2,i,.,-15,-7,.,
CCOc1ccc(N(CC(=O)NCCOc2ccc(C)cc2)S(=O)(=O)c2ccccc2)cc1,0,-6,-7,i,8,-4,-35,-7,
COc1ccc(N2C(=O)/C(=C\c3ccco3)N=C2SCC(=O)NC(C)(C)C)cc1Cl,-12,1,26,i,.,3,-18,0,
CC[C@]12c3[nH]c4ccc(OC)cc4c3CCN1C(=O)C(CC(=O)NCCCN(C)C)C[C@@H]2C(=O)N1CCN(C(=O)C2CC2)CC1 (stereo not given in full),1,5,.,.,11,.,-15,.,

# High-throughput results (PubChem BioAssay)
